Polio RdRp inh: poliovirus RNA polymerase inhibition | P03300 | poliovirus polymerase elongation, fluorescence polarization; stronger effect = lower value | % elongation, % (compound at 16.7 µg/mL) | 150,000 tested, 0.66% active | AID 588519; in the data active = % elongation below about 90%; note: some results filed as inactive read as strong as hits
Target sequence (P03300 1749-2209 limits assumed): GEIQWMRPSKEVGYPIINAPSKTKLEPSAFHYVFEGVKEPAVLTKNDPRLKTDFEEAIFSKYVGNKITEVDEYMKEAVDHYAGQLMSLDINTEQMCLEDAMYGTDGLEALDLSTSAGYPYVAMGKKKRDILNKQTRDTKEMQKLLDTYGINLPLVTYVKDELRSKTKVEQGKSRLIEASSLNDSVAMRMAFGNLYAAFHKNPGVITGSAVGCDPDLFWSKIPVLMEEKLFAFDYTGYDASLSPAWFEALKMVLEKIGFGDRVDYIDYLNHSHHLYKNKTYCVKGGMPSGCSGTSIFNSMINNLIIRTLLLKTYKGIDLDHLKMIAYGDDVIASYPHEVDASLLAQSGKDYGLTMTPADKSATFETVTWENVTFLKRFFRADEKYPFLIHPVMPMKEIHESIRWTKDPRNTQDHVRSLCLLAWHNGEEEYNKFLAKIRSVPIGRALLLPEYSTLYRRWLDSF
Polio RdRp inh intensity: also measured in Polio RdRp inh; calls as there; % elongation; measured here: total intensity read-out; formula for this scale not given here;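 total fluorescence in place of polarization; lower means less elongation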
Active calls of the source: *. These rows are one share of the data; count on the stated rates, not on these rows.

molecule	Polio RdRp inh	Polio RdRp inh intensity
Cc1ccc(NC(=O)CCS(=O)(=O)c2cccc3nsnc23)c(C)c1	102	105
COCCNC(=O)Cn1c(=O)c2cccn2c2ccc(F)cc21	103	112
CCOC(=O)c1ccc(NC(=O)Nc2cc3c(cc2N2CCCC2)n(C)c(=O)n3C)cc1	107	108
Cc1cn2c(=O)c(S(=O)(=O)Nc3ccc(F)cc3F)c(C)nc2s1	108	113
COc1ccc(-c2c(C)c3ccc(O)c(CN4CCC(C)CC4)c3oc2=O)cc1OC	103	103
Cc1cccc(CNC(=O)c2ccc3nc(-c4ccccc4)c(-c4ccccc4)nc3c2)c1	111	114
Cc1ccc(-n2nc(CO)c(C(=O)NCCCCc3ccccc3)n2)cc1	109	98
COc1ccc(C(=O)Nc2nc3nc(C)c(Cc4ccccc4)c(=O)n3[nH]2)cc1OC	109	108
COC(=O)c1c(-c2ccc(Cl)cc2)noc1N1CCN(c2ccc(C(C)=O)cc2)CC1	110	100
Cc1ccc2nc(NC(=O)c3cccn(Cc4ccccc4F)c3=O)sc2c1	114	107
Cc1ncc(CO)c2c1Oc1nc(-c3ccccc3F)nc(SCC(=O)N3CCCCC3)c1C2	102	106
CN(C)c1ccc(C(=O)Nc2c(C(=O)NC(C)(C)C)oc3ccccc23)cc1	106	111
Cn1c(=O)n(C)c2cc(NS(=O)(=O)c3ccc(Cl)cc3)c(NCc3ccccc3)cc21	109	105
CC(=O)OCc1cnc(C)c2oc(=O)c(C(=O)Nc3cc(F)ccc3C)cc12	109	106
CCc1nn(CC(=O)N2CCN(c3ccc(Cl)cc3)CC2)c(=O)c2cc3occc3n12	106	106
CC(=O)Nc1ccc2nc(-c3cc(C)ccc3C)[nH]c2c1	99	100
COc1cc(C2c3c(oc4ccc(C)cc4c3=O)C(=O)N2Cc2ccc(F)cc2)ccc1O (stereo unspecified)	102	104
COc1cccc(CNC(=O)Cn2cccc2C(=O)c2ccccc2)c1	110	114
Cc1cn(C)c(CC(=O)N2CCN(c3ccc(F)cc3)CC2)c1C(=O)O	108	96
O=C(Nc1ccc(Br)cc1C(=O)c1ccccc1Cl)c1ccccc1F	100	106
COc1ccccc1NC(=O)C1=C(C)Nc2ncnn2C1c1cccn1C (stereo unspecified)	110	99
COc1cc(NC(=O)c2nnn(Cc3ccc(F)cc3)c2N)cc(OC)c1	102	103
CCCCN(CCCC)S(=O)(=O)c1ccc(C(=O)Nc2sc3c(c2C(N)=O)CCN(CC)C3)cc1	104	102
COc1cc2[nH]c(=O)n(Cc3ccc(C(=O)N4CCN(c5cc(Cl)ccc5C)CC4)cc3)c(=O)c2cc1OC	105	107
COc1ccccc1-c1noc(-c2ccc(NCC3CCCO3)c([N+](=O)[O-])c2)n1 (stereo unspecified)	113	109
CCOc1ccc(CNC(=O)CC(C)n2nc(C)cc2C)cc1OC (stereo unspecified)	101	106
Cc1nn(Cc2ccc(F)cc2)c(C)c1NC(=O)c1noc2c1CCc1ccccc1-2	101	102
Cc1ccc2c(c1)N(C(=O)N1CCC(C(=O)NCc3cccc(Br)c3)CC1)CCO2	105	108
COc1cccc(CSc2nc3n(n2)C(c2ccc(C(=O)O)cc2)C(C(=O)Nc2ccccc2)=C(C)N3)c1 (stereo unspecified)	106	109
COc1cccc(CNCCSc2nnnn2C)c1OCc1ccccc1F	99	100
Cc1nc(-c2ccc(S(=O)(=O)N3CCN(c4cccc(Cl)c4)CC3)cc2)co1	107	116
COc1cccc(CNC(=O)c2cc(Sc3cccc(Cl)c3)nc3ccccc23)c1	115	114
Cc1cccc(C)c1Nc1c(-c2ccccn2)nc2c(C)cccn12	103	104
COc1cc2c(cc1OC)C(COc1cc(C)cc(C)c1)N(C(=O)COc1ccccc1)CC2 (stereo unspecified)	110	116
Cc1ccc(S(=O)(=O)N2CCC(C(=O)Nc3cc(C)ccc3C)CC2)cc1	106	109
CC1=C(C(=O)NCc2ccc(Cl)cc2)C2(CCC(C)CC2)OC1=O (stereo unspecified)	110	112
COc1ccccc1-c1nnc(C2CCN(C(=O)c3cccc(Cl)c3)CC2)o1	104	109
CCOc1ccc(CC(=O)Nc2c(C(=O)c3ccccc3)oc3ccc(Cl)cc23)cc1OCC	103	104
Cc1ccc(NC(=O)C2CCCN(c3nnc(C)c4c(C)n(-c5ccccc5)nc34)C2)cc1Cl (stereo unspecified)	103	104
CCOC(=O)c1cc(-c2ccccc2)n(CCCC(=O)Nc2cccc(C)c2)c1C	107	95

The final 4 entries of the part before open the next one.
molecule	Polio RdRp inh	Polio RdRp inh intensity
COc1ccccc1-c1nnc(C2CCN(C(=O)c3cccc(Cl)c3)CC2)o1	104	109
CCOc1ccc(CC(=O)Nc2c(C(=O)c3ccccc3)oc3ccc(Cl)cc23)cc1OCC	103	104
Cc1ccc(NC(=O)C2CCCN(c3nnc(C)c4c(C)n(-c5ccccc5)nc34)C2)cc1Cl (stereo unspecified)	103	104
CCOC(=O)c1cc(-c2ccccc2)n(CCCC(=O)Nc2cccc(C)c2)c1C	107	95
Cc1ccc(-n2ncc3c(N(CCO)Cc4ccccc4)ncnc32)cc1	114	106
CCOC(=O)c1cc2c(=O)n3ccccc3nc2n(CC(C)C)c1=NC(=O)C(C)Oc1ccccc1 (stereo unspecified)	105	103
CCCc1nc2nc(C)c(NS(=O)(=O)c3ccc(F)cc3)c(=O)n2[nH]1	106	111
CCn1cc(C(=O)N2CCN(c3ccc(C)cc3)C(C)C2)c(=O)c2cc(S(=O)(=O)N3CCCC3)ccc21 (stereo unspecified)	105	108
Cc1oc(-c2ccccc2F)nc1CS(=O)(=O)CC(=O)N1CCN(c2ccccc2)CC1	103	102
Cc1nc2ccc(S(=O)(=O)N(C)CC(=O)Nc3cccc(C(F)(F)F)c3)cc2s1	108	112
Cc1ccc(-c2cn3nc(N4CCCC(C(=O)Nc5ccc(F)cc5)C4)sc3n2)cc1 (stereo unspecified)	107	113
CCN(c1ccc(Cl)cc1)S(=O)(=O)c1nnc(NC(=O)C2CCCCC2)s1	110	111
CCOc1ccccc1NC(=O)Cn1nnc2sc3c(c2c1=O)CCC(C(C)(C)C)C3 (stereo unspecified)	109	93
COc1ccccc1NC(=O)C(Cc1ccccc1)NS(=O)(=O)c1cccc2nsnc12 (stereo unspecified)	102	104
CC1CCn2c(nc3cc(C(=O)NCc4ccccc4)ccc32)C1 (stereo unspecified)	111	107
CCOc1ccc(NC(=O)CN2C(=O)CCSc3ccc(S(=O)(=O)N4CCCC4)cc32)cc1	105	110
CCOC(=O)c1cc(S(=O)(=O)N2CCN(c3ccccc3OC)CC2)[nH]n1	103	97
CCOC(=O)c1c(N)n(-c2ccc(C)c(C)c2)c2nc3ccccc3nc12	108	107
N#C/C(=C\c1ccc(OCc2ccc(Cl)cc2Cl)cc1)c1nc2ccccc2[nH]1	102	105
CCN(c1ccc(Cl)cc1)S(=O)(=O)c1nnc(NC(=O)c2ccco2)s1	105	102
CCOc1ccc(CN(C(=O)c2cc(=O)c3cc(C)cc(C)c3o2)C2CCS(=O)(=O)C2)cc1 (stereo unspecified)	113	115
Cc1coc2c1c(C)cc1oc(=O)cc(C)c12	104	107
CN(Cc1ccccc1)C(=O)CCS(=O)(=O)c1ccc2c(c1)oc(=O)n2C	110	114
Cc1ccc(NC(=O)Nc2nnc(N3CCCCC3)s2)c(C)c1	114	109

Rewritten with each value named: entries from further up.
SMILES: CCN(c1ccc(Cl)cc1)S(=O)(=O)c1nnc(NC(=O)c2ccco2)s1
  Polio RdRp inh: 105
  Polio RdRp inh intensity: 102
SMILES: Cc1ccc(NC(=O)Nc2nnc(N3CCCCC3)s2)c(C)c1
  Polio RdRp inh: 114
  Polio RdRp inh intensity: 109

(cont.)
molecule	Polio RdRp inh	Polio RdRp inh intensity
CCCNC(=O)Cn1nc(-c2ccc(F)cc2)c2cnc3ccc(F)cc3c21	105	112
CCOc1cc(C(=O)N2CCn3c4c(c5cc(C)ccc53)CCCC42)cc(OCC)c1OCC (stereo unspecified)	108	112
COc1ccccc1NC(=O)C1=C(C)Nc2nc(SCc3ccccc3Cl)nn2C1c1cccnc1 (stereo unspecified)	102	96
O=C(Cn1c(=O)n(Cc2ccccc2)c(=O)c2sc3ccccc3c21)Nc1ccccc1	107	107
CC(C)CCNC(=O)CSc1nc2ccccc2nc1Cc1ccccc1	99	104
CCN(CC)CCCNC(=O)c1ccc2c(c1)NC(=O)C(CS(=O)(=O)Cc1ccc(F)cc1Cl)N2 (stereo unspecified)	109	96
Cc1ccc(S(=O)(=O)c2nnn3c2nc(NC(C)c2ccccc2)c2sccc23)cc1 (stereo unspecified)	110	109
O=C(NC1CCCC1)c1cnn(-c2ccc(F)cc2F)c1C1CCNCC1	107	107
COC(=O)c1cc(NC(=O)c2cc3c(-c4ccccc4F)nn(C)c3s2)cc(C(=O)OC)c1	106	110
CCc1ccc(NCc2cc3ccc(OC)cc3n(CC(=O)Nc3cccc(Cl)c3C)c2=O)cc1	114	102
COc1cccc(N2C(=O)C(CC(=O)Nc3cccc(F)c3)N(C(C)C)C2=O)c1 (stereo unspecified)	112	114
Cc1ccc(C)c(N2CCN(C(=O)Cn3cnc4sc(C)c(S(=O)(=O)N5CCN(c6ncccn6)CC5)c4c3=O)CC2)c1	106	105
CCCc1nnc(NC(=O)CSc2nnc3c4ccccc4n(CC)c3n2)s1	109	108
Cc1c(-c2ccc(Br)cc2)c(=O)oc2ccc(OC(=O)N3CCOCC3)cc12	112	102
COc1ccc(-c2c(C)nn3c4c(cnc23)C(=O)CC(c2ccccc2)C4)cc1 (stereo unspecified)	107	109
Cc1cc(C)cc(-n2c(SCC(=O)NCc3ccco3)nc3c([nH]c4ccccc43)c2=O)c1	105	113
COc1ccc2c(c1)CC(C(=O)Nc1cc(Cl)ccc1C)CO2 (stereo unspecified)	112	105
C=Cc1ccc(Cn2c(C(=O)O)c(CNCCc3ccco3)c3ccc(C)cc32)cc1	106	112
COc1ccccc1CNC(=O)c1ccc2c(c1)nc(C)n2-c1cccc(C)c1	102	107
COc1ccc(-c2cc3ccc(O)c(CN4CCC(C)CC4)c3oc2=O)cc1OC	98	109
COc1ccc(Nc2nc3c(S(=O)(=O)c4ccccc4)nnn3c3ccc(Cl)cc23)cc1	104	101
O=C(CN1CCCN(Cc2ccccc2Cl)S1(=O)=O)Nc1ccc2c(c1)OCCO2	106	112
CCOc1ccc(-n2cc(-c3ccccc3)c3c(NCCc4ccccc4)ncnc32)cc1	110	107
Cc1cc(C)c(NC(=O)CSc2nc3nc(C)cc(C)n3n2)c(C)c1	102	97
Cc1cccc(N(CC(=O)NCCc2ccccc2)S(=O)(=O)c2ccccc2)c1C	104	109
O=C(CSc1nc(-c2cccc(Cl)c2)nc2cc(=O)[nH]n12)Nc1ccccc1	101	103
CCN(CC)c1ccc(NC(=O)c2cnn(-c3ccccc3)c2-n2cccc2)c(C)c1	109	103
O=C(CCCCn1c(=O)c2ccccc2n(Cc2ccccc2Cl)c1=O)NCCc1ccccc1	111	108
CCCc1nc(SC)ncc1C(=O)N1CCN(c2ccc(Cl)cc2)CC1	112	115
COC(=O)CN1C(=O)C(O)(c2c(C)[nH]c3ccccc23)c2ccccc21 (stereo unspecified)	102	89
CC(C)C12CN3CC(C(C)C)(CN(C1)C3c1ccc(Cl)cc1)C2=O (stereo unspecified)	107	111
COc1ccc(OCc2ccc(-c3nc(C#N)c(NC(C)c4ccccc4)o3)o2)cc1 (stereo unspecified)	104	98
CN1C(C(=O)Nc2ccc(F)cc2F)=CC(c2ccc3c(c2)OCO3)=NS1(=O)=O	110	103
Cn1cc(C(=O)NCc2ccccc2)c(=O)c2cc(S(=O)(=O)N3CCOCC3)ccc21	104	105
COc1cc(NC(=O)C2CCN(S(=O)(=O)c3ccc4c(c3)CCCC(=O)N4)CC2)cc(OC)c1	104	109
Cc1ccc(N2C(=O)CSC23C(=O)Nc2ccccc23)cc1F (stereo unspecified)	108	109
Cn1cc(S(=O)(=O)N2CCCCCC2)cc1C(=O)NCc1ccc(Cl)cc1	101	103
CCCSc1ncc(Cl)c(C(=O)Nc2nc3ccc(C)cc3s2)n1	112	112
CCOC(=O)c1cc(C)n(CC2CCC(C(=O)Nc3cccc(Cl)c3)CC2)c1C (stereo unspecified)	104	110
COc1ccc(NC(=O)c2oc3ccccc3c2NC(=O)c2cc(=O)c3ccccc3o2)cc1	112	117
CCOC(=O)c1noc2ncn(CC(=O)Nc3cc(Cl)ccc3OC)c(=O)c12	107	105
COc1ccccc1N(CC(=O)Nc1ccccc1C(F)(F)F)S(=O)(=O)c1ccc(C)cc1	109	105
CC(C)(C)NC(=O)c1oc2ccccc2c1NC(=O)c1ccc(F)cc1	105	107
CCOc1ccc(NC(=O)Cn2cc(C(=O)c3ccc(C)cc3)c(=O)c3cc4c(cc32)OCCO4)cc1	112	109
CCc1ccc(OCc2nc(-c3ccc(OC)cc3)no2)c(Br)c1	102	107
Cc1cc(-n2c(C)nc3ccccc3c2=O)ccc1NC(=O)c1cccc([N+](=O)[O-])c1C	108	108
CCOc1ccc(NC(=O)C(NS(=O)(=O)c2cccc3nsnc23)c2ccccc2)cc1 (stereo unspecified)	106	111
COc1ccc(Nc2c3c(nc4nncn24)CCC3)cc1OC	114	118

Bioassay records deposited in PubChem BioAssay by ICCB-Longwood Screening Facility, Harvard Medical School.
